Compound activity deposited in PubChem BioAssay by several laboratories.
RGS16-Gao HTS – RGS16-Galphao interaction regulator (human). O15492+P09471. AID 1441. 220,000 compounds, 0.38% hits. bead-based flow cytometry RGS16-Galphao binding, fluorescence; actives lie on both sides. binding response (% of control), % at 10 µM;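 active = below 25% or above 175%, edge rows of some plates excepted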;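 also: Galphao activated by GDP with aluminum fluoride before binding; 100% = wells without compound and 0% = beads without RGS; some results beyond the cut were filed as inactive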
Target sequence (O15492 whole entry, looked up): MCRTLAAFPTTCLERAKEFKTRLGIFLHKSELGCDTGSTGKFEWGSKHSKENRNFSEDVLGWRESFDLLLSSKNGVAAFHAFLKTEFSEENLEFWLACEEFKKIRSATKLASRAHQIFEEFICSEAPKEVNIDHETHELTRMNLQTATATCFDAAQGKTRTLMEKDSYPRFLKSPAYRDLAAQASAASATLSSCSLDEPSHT
Target sequence (P09471 whole entry, looked up): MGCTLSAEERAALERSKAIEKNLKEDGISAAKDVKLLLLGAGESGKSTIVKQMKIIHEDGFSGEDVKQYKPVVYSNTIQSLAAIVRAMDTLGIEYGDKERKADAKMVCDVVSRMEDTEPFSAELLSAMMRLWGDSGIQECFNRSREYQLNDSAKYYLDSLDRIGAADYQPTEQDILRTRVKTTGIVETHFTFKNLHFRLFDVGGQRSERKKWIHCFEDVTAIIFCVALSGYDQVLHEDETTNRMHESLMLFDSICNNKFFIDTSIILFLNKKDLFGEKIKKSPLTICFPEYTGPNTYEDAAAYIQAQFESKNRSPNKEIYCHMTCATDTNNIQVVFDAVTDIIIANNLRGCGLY
GALR2 ag – activates the human galanin receptor 2; 140,000 compounds, 0.48% hits; activation, %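 (tested at 5 µM)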; GALR2-expressing cells, agonist activation read-out; AID 803;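 active = above mean plus 3 SD of all compounds, about 5% in these data, not always enough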;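 also: 0% = vehicle buffer wells and 100% = reference agonist at full effect; tested in CHO reporter cells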
Target sequence (O43603 whole entry, looked up): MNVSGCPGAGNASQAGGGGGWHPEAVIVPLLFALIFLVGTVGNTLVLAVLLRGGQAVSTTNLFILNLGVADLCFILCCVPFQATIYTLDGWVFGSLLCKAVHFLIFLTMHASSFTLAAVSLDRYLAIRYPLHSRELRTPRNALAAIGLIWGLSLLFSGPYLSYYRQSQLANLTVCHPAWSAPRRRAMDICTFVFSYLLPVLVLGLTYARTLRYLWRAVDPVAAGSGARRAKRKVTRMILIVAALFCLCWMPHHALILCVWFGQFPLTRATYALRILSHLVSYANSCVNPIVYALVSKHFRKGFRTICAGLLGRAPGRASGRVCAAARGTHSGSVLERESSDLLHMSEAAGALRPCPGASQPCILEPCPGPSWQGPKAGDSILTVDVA
PKD1 kinase inh – PKD1 (human) kinase inhibition; 200,000 compounds, 0.056% hits; PKD1 kinase fluorescence polarization assay; Q15139; inhibition, %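 (about 10 µM by stock and volumes)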;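 active = inhibition of 50% or more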;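 also: controls were vehicle for no effect and a reference inhibitor for full effect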
HSV augment – increases HSV replication in cells | HSV replication augmentation in cells, fold increase | maximum fold increase | 220,000 compounds, 0.005% hits | AID 1956;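 active = peak rise of 1.5-fold or more in the series; inconclusive = self-fluorescent or not available for retest; tested in PC3 cells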;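 also: first round at 10 µM; read as green reporter fluorescence; hits show the peak of a series up to 25 µM; 1 = signal of infected wells without compound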
INS promoter inh – TRM-6 insulin promoter activity inhibition. TRM-6 cells (human fetal islet line), insulin promoter-eGFP reporter, imaging; reporter expression induced with tamoxifen. inhibition, % at 2 µM. 130,000 compounds, 0.9% hits;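 active = inhibition above the mean plus 3 SD, with well images judged a real hit on visual review, cut at about 60% in these data, passing the limit was not always enough; inconclusive = inhibition over the cutoff but images rejected on review; inactive = inhibition not above the cutoff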
INS promoter inh cell count – also measured in INS promoter inh; calls as there; normalized cell count, %; measured here: cell count, toxicity; reference of the scale not given here;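 cells exposed to compound for 48 h; stained nuclei by imaging scaled within each plate; lower means fewer cells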
HSV augment primary fold – further read-out of HSV augment, marked with its call; fold increase; compound at 10 µM; measured here: primary screen fold increase 10 uM; tested in PC3 cells;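 GFP signal in the first replicate; 1 = infected wells without compound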
The depositor's hits bear a star; i = inactive; ? = inconclusive; . = not tested or not shown.

Every second line gives: RGS16-Gao HTS, GALR2 ag, PKD1 kinase inh, HSV augment, HSV augment primary fold, INS promoter inh, INS promoter inh cell count
- CCOc1ccc(Br)cc1S(=O)(=O)Nc1ccc(Cl)c(S(=O)(=O)N(CC)c2ccccc2)c1
  124, -1.1, -8, i, 0.98, -10, 74
- O=C(c1ccccc1)c1ccc(N2CCOCC2)c(F)c1
  97, -2.6, 4, i, 1.1, ., .
- CCOC(=O)Nc1cc(OCC)c(NC(=O)C2CC2)cc1OCC
  110, 0.1, -7, i, 1, 3, 113
- C=CCc1ccc2oc(C(=O)OCC)cc(=O)c2c1O
  105, ., ., i, 1.3, ., .
- O=S(=O)(c1ccccc1F)N1CCN(Cc2nc3ccccc3[nH]2)CC1
  102, -2.1, 2, i, 0.88, 2, 97
- CCCOc1ccccc1C(=O)NCCCC(=O)O
  107, -1.2, 11, i, 1.1, ., .
- O=C(NNC(=O)c1cccc(S(=O)(=O)N2CCN(c3ccccc3)CC2)c1)c1ccc(Cl)cc1
  102, 0.1, 0, i, 0.94, ., .
- Fc1cccc(C2NC(=S)NC3=C2N2CCC3CC2)c1 (stereo not given)
  102, -1.9, -6, i, 0.9, 3, 138
- Cc1cc(NC(=O)COC(=O)C2CCCN2C(=O)c2cccs2)no1 (stereo not given)
  103, -0.1, 0, i, 0.89, ., .
- COc1ccc(OC)c2c(N3CC(C)OC(C)C3)cc(C(F)(F)F)nc12 (stereo not given)
  101, -0.1, 7, i, 0.91, ., .
- Nn1c(SCC(=O)N2CCCc3ccccc32)nncc1=O
  159, ., -7, i, 0.91, 11, 76
- Cc1ccc(C(=O)NC2(C(Cl)Cl)N=C(c3ccccc3)N=C2N)cc1 (stereo not given)
  98, ., -2, i, 0.96, -6, 69
- Cc1cc(C)c2c(c1)/C(=c1/sc3n(c1=O)CN(c1ccccc1)CN=3)C(=O)N2
  109, ., ., i, 0.44, ., .
- O=C1Oc2ccccc2C(=O)/C1=C/N1CCN(c2ccccc2F)CC1
  99, ., -3, i, 0.86, 64, 121
- COc1ccc(CCNc2oc(COc3ccccc3F)nc2C#N)cc1
  102, -0.9, -1, i, 0.91, 38, 122
- CC1(C)Cc2ccccc2-c2nnc(SCC(=O)Nc3ccc4c(c3)OCO4)n21
  103, -3.0, -8, i, 0.95, -3, 115
- Cc1ccc(S(=O)(=O)N2CCCCC2)cc1NC(=O)Cn1cnnn1
  102, ., ., i, 0.98, ., .
- O=C(NNc1ccccc1)C(=O)NNS(=O)(=O)c1ccc(CCCl)cc1
  90, ., ., i, 1.1, ., .
- O=C(NNc1nc2c(F)cccc2s1)C1COc2ccccc2O1 (stereo not given)
  110, ., -2, i, 0.99, -22, 110
- COc1cc2[nH]c(=S)n(Cc3ccco3)c(=O)c2cc1OC
  103, -1.3, -8, i, 1, 11, 128
- NC(=O)CSCc1c(Cl)cccc1Cl
  103, -1.4, -10, i, 0.87, -12, 206
- CCN(CC)S(=O)(=O)c1ccc(NC(=O)COC(=O)c2cnc(C)cn2)cc1
  100, ., 0, i, 0.96, ., .
- COc1ccc(Cl)cc1NC(=O)CSc1nnc(CN2CCOCC2)n1-c1ccc(Cl)cc1
  98, -1.0, 1, i, 1.1, 22, 86
- COc1cc(/C=N\Nc2nc(-c3cccs3)c(NC(C)=O)s2)ccc1O
  98, ., ., i, 0.92, ., .
- COc1ccccc1C(=O)C(O)c1ccccc1OC (stereo not given)
  83, -0.5, -3, i, 0.99, -26, 122
- CCOC(=O)C1=C(O)/C(=C/c2ccc(OCC(=O)O)c(OC)c2)SC1=Nc1ccc(OC)cc1
  103, 0.1, 0, i, 0.96, 17, 127
- CC(=O)NCCNC(=O)[C@H](Cc1ccccc1)NC(=O)c1cccs1
  103, -2.0, 4, ., ., -3, 87
- CCOc1ccc(N(CC(=O)NN=C2CCCC2)S(C)(=O)=O)cc1
  100, ., -7, i, 1.1, ., .
- COC(=O)c1ccccc1NC(=O)c1cccc(NC(=O)c2ccc(Br)o2)c1C
  84, -3.6, -5, i, 1.1, 37, 88
- CCCCc1ccc(NC(=S)NCCc2ccc(S(N)(=O)=O)cc2)cc1
  93, ., -5, i, 1.1, 18, 84

Taken from the listing, five compounds:
Every second line gives: RGS16-Gao HTS, GALR2 ag, PKD1 kinase inh, HSV augment, HSV augment primary fold, INS promoter inh, INS promoter inh cell count
- CCOC(=O)C1=C(O)/C(=C/c2ccc(OCC(=O)O)c(OC)c2)SC1=Nc1ccc(OC)cc1
  103, 0.1, 0, i, 0.96, 17, 127
- CC(=O)NCCNC(=O)[C@H](Cc1ccccc1)NC(=O)c1cccs1
  103, -2.0, 4, ., ., -3, 87
- CCOc1ccc(N(CC(=O)NN=C2CCCC2)S(C)(=O)=O)cc1
  100, ., -7, i, 1.1, ., .
- COC(=O)c1ccccc1NC(=O)c1cccc(NC(=O)c2ccc(Br)o2)c1C
  84, -3.6, -5, i, 1.1, 37, 88
- CCCCc1ccc(NC(=S)NCCc2ccc(S(N)(=O)=O)cc2)cc1
  93, ., -5, i, 1.1, 18, 84

The list goes on:
Every second line gives: RGS16-Gao HTS, GALR2 ag, PKD1 kinase inh, HSV augment, HSV augment primary fold, INS promoter inh, INS promoter inh cell count
- COc1ccc(OCc2nc(N)nc(Nc3ccccc3)n2)cc1
  109, 0.9, 2, i, 1.1, -8, 210
- CC(C)c1cc(NC(=O)CCl)on1
  106, ., -5, i, 0.92, -127, 48
- NC(=O)C(c1ccc(Cl)cc1)c1ccc(Sc2ccccc2)nn1 (stereo not given)
  94, -2.2, -11, i, 1, 39, 146
- CCc1nc2c(cnn2-c2ccc(Cl)cc2)c(=O)n1-c1ccc(OC)cc1
  101, -2.1, 11, i, 0.96, ., .
- COc1ccc(CCNC(=O)CSc2ccc(-c3ccncc3)nn2)cc1
  104, ., 0, i, 0.91, 47, 158
- CCN(CC)S(=O)(=O)c1cccc(NC(=O)C2SC(=Nc3ccc(C)cc3C)C(C(=O)NCC3CCCO3)=C2N)c1 (stereo not given)
  110, -1.9, -7, i, 0.97, 19, 136
- CC(C)COC(=O)c1ccc(NC(=O)C2C3C=CC(C3)C2C(=O)O)cc1 (stereo not given)
  102, 0.2, -4, i, 1, ., .
- COC(=O)c1c(C(=O)OC)c(-c2ccc(C(C)(C)C)cc2)n2c1CS(=O)C2 (stereo not given)
  93, ., -1, i, 0.9, 27, 100
- Cc1ccc(-n2nnc(-c3cc4ccccc4nc3Cl)n2)cc1
  97, ., 4, i, 1.1, ., .
- O=C(NCc1ccccn1)C1CN(S(=O)(=O)c2ccccc2)CCN1S(=O)(=O)c1ccccc1 (stereo not given)
  99, ., 0, i, 1.3, ., .
- CCCS(=O)(=O)c1c(S(=O)(=O)CCC)c2ccccn2c1C(=O)OC
  104, -1.4, -2, i, 0.87, 4, 63
- COCCN(Cc1cc2cc(C)ccc2nc1Cl)C(=O)Nc1ccccc1OC
  80, ., 3, i, 0.86, -133, 68
- Cc1[nH][nH]c(=O)c1C(c1ccc(N(C)C)c(Br)c1)c1c(C)[nH][nH]c1=O
  100, ., ., i, 1.2, ., .
- COc1ccc(C(=O)CC(=O)c2ccccc2O)cc1OC
  99, ., 4, i, 0.91, -17, 57
- CCOC(=O)c1sc(NC(=O)c2cccc(S(=O)(=O)N3c4ccccc4CC3C)c2)cc1C (stereo not given)
  95, -0.1, 9, i, 0.81, -36, 47
- Nc1c2c(nc3sc4c(c13)CCCC4)-c1ccccc1CC2
  107, ., ., i, 0.95, ., .
- COc1ccc(C(=O)N/N=C(\C)c2ccc3c(c2)C2C=CCC2C(c2ccccc2)N3)cc1 (stereo not given)
  69, -0.4, -7, i, 1.1, -20, 176
- c1ccc(-n2nnnc2SCc2ccccn2)cc1
  98, -1.8, -3, i, 0.98, -6, 102
- O=C(NCCC1=CCCCC1)C1CCN(S(=O)(=O)c2ccc(Br)s2)CC1
  110, -1.4, 1, i, 1, 6, 111
- CC(C)NC(=O)[C@H](CSCc1ccccc1)N1Cc2ccccc2C1=O
  ., -1.9, -14, ., ., 14, 82
- O=[N+]([O-])c1cc(Cl)ccc1NCCNc1ncc(C(F)(F)F)cc1Cl
  98, -1.4, 15, i, 1, 38, 103
- CN(C(=O)Nc1cccc(C(F)(F)F)c1)C1CCCCC1
  97, ., ., i, 0.93, ., .
- CCOc1nc(C)ccc1-c1noc(-c2ccccc2OC)n1
  103, -0.9, -13, i, 0.99, 43, 124
- O=C(c1ccco1)N(Cc1ccco1)c1ccc(O)cc1
  95, -1.2, -3, i, 0.99, ., .
- COC(=O)c1scc(S(=O)(=O)C(C)(C)C)c1-n1cccc1
  94, ., ., i, 1.2, ., .
- Cc1ccc(O)c(NC(=O)/C=C/C(=O)O)c1
  111, ., 5, i, 1, ., .
- N#Cc1ccc(Oc2ccc(NC(=O)C3CC=CCC3C(=O)O)cc2)cc1 (stereo not given)
  104, ., -9, i, 1, ., .
- CCOC(=O)/C(=N/Nc1ccc(Cl)cc1)S(=O)(=O)c1ccc(Cl)cc1
  104, -3.5, -10, i, 0.98, -7, 129
- Cc1cc(/C=C2\SC(=S)N(Cc3ccco3)C2=O)c(C)n1-c1ccccc1
  95, -0.8, -6, ?, ., -223, 112
- CCSc1nnc(-c2cccnc2)n1Cc1ccco1
  99, -1.5, 0, i, 1, 8, 39
- Nn1c(SCc2cccc3ccccc23)nnc1-c1ccco1
  98, -1.5, -15, i, 0.85, ., .
- COc1cc(Cl)ccc1S(=O)(=O)n1nc(C)cc1C
  100, -0.6, -13, i, 0.94, ., .
- Cc1[nH]c2ccccc2c1C(=O)C(=O)NCCOc1ccccc1
  107, ., 6, i, 0.91, 21, 78
- N#CCCN(Cc1cccs1)C(=O)c1ccc(Cl)cc1
  101, ., ., i, 0.91, ., .
- Nc1nc(-c2ccc(F)cc2)cs1
  99, ., -6, i, 0.8, ., .
- O=C(NCc1cccnc1)C(=O)NCC(c1ccco1)N1CCN(c2ccccc2)CC1 (stereo not given)
  104, -1.1, 6, i, 0.94, -34, 112
- O=C(CSc1nc2ccccc2[nH]1)N/N=C/c1ccncc1
  100, ., ., i, 1.2, ., .
- O=C(O)c1cccc(-c2ccc(/C=N/Nc3nn[nH]n3)o2)c1
  103, ., -4, i, 1, 38, 127
- Cn1c(CCN2CCCCC2)nc2cc(NC(=O)Nc3ccccc3)ccc21
  101, 0.0, 5, i, 0.91, -317, 72
- COc1cc(C(=O)NCCNC(=O)C2CCCNC2=O)cc(OC)c1OC (stereo not given)
  86, ., ., i, 1, ., .
- Cc1nc2ccccc2c(=O)n1/N=C/c1ccccc1O
  104, ., ., i, 0.97, ., .
- COc1ccccc1N1CCN(CC(=O)Nc2c(C)n[nH]c2C)CC1
  173, -2.5, 3, i, 0.84, ., .
- CC1Oc2ccccc2N(CC(=O)NCc2ccc3c(c2)OCO3)C1=O (stereo not given)
  112, ., 9, i, 0.93, -14, 136
- O=C(NCc1ccccc1)c1c(O)c2cccc3c2n(c1=O)CCC3
  96, -2.3, -23, i, 0.89, 60, 70
- Cn1c(CN2CCN(c3ccc(Cl)cc3)CC2)nc2ccccc21
  100, -1.3, -6, i, 0.81, 11, 171
- OC1COC(OCC2OC(OCc3ccccc3)C(O)C(O)C2O)C(O)C1O (stereo not given)
  98, ., 15, i, 0.91, ., .
- O=C(NCc1ccc2c(c1)OCO2)c1ccc2c(c1)C(=O)N(Cc1cccnc1)C2=O
  101, -2.3, 10, i, 0.94, 63, 132
- C/C=C/C(=O)Nc1ccccc1Br
  95, -1.0, 1, i, 0.79, -68, 38
- Cc1ccc(S(=O)(=O)N2CCN(S(=O)(=O)N3CCCCC3)CC2)c(C)c1
  105, 6.6, -11, i, 0.93, 42, 27
- COc1ccc(CCNC(=O)Cn2nc(C(=O)O)c3ccccc3c2=O)cc1OC
  100, ., -6, i, 0.98, ., .
- O=C(O)c1ccc(Cn2cc(C(F)(F)F)ccc2=O)cc1
  100, ., -1, i, 1.1, ., .
- CC(C)CCOc1ccc(-c2c(=O)n(OCc3ccc([N+](=O)[O-])cc3)c3ccccc3[n+]2[O-])cc1
  102, -0.5, -6, i, 0.87, 10, 108
- Cc1nc(C(=O)Nc2cccc(Cl)c2Cl)nn1-c1cc(OC(C)C)c(Cl)cc1Cl
  119, -1.3, -18, ., ., 10, 148
- Cc1ccc2[nH]c3c(=O)n(CCCN4CCOCC4)cnc3c2c1
  102, -2.0, 1, i, 0.92, ., .
- Cc1nc(/C(N)=N/OC(=O)c2cccc(Cl)c2)c(C(F)(F)F)o1
  97, ., ., i, 0.98, ., .
- O=C1OC(Nc2ccc3c(c2)OCO3)c2ccccc21 (stereo not given)
  96, -2.0, -7, i, 0.68, 10, 130
- Cc1ccc([C@@H]2C[C@H]3CN(Cc4cccc(Cl)c4)C(=O)[C@]34CCCN24)o1
  111, ., -1, i, 0.93, ., .
- Cc1ccc2c(Cl)c(C(=O)Nc3nn[nH]n3)sc2c1
  101, ., -7, i, 0.82, -7, 130
